GALR2 agonist – GALR2 (human) receptor agonism; GALR2-expressing cells, agonist activation read-out; actives 0.48% (n = 140,000); AID 803; activation, %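 (tested at 5 µM)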;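 active = above mean plus 3 SD of all compounds, about 5% in these data, not always enough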;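 also: 0% = vehicle buffer wells and 100% = reference agonist at full effect; tested in CHO reporter cells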
Target sequence (O43603 whole entry, looked up): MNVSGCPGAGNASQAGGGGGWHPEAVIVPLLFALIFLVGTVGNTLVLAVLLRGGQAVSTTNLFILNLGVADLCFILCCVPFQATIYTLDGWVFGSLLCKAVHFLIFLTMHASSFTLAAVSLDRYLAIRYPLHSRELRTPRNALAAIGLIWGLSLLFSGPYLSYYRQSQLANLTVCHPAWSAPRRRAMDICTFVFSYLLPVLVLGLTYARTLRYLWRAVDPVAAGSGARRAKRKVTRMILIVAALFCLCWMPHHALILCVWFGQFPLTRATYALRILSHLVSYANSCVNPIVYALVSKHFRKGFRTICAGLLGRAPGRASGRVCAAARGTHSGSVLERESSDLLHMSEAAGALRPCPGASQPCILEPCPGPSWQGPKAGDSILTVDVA
INS promoter inh – TRM-6 insulin promoter activity inhibition; TRM-6 cells (human fetal islet line), insulin promoter-eGFP reporter, imaging; reporter expression induced with tamoxifen; inhibition, % at 2 µM; actives 0.9% (n = 130,000);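 active = inhibition above the mean plus 3 SD, with well images judged a real hit on visual review, cut at about 60% in these data, passing the limit was not always enough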
RGS16-Gao HTS – modulates binding between human RGS16 and Galphao; O15492+P09471; bead-based flow cytometry RGS16-Galphao binding, fluorescence; actives lie on both sides; binding response (% of control), % at 10 µM; actives 0.38% (n = 220,000); AID 1441;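 active = below 25% or above 175%, edge rows of some plates excepted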;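 also: Galphao activated by GDP with aluminum fluoride before binding; 100% = wells without compound and 0% = beads without RGS; some results beyond the cut were filed as inactive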
Target sequence (O15492 whole entry, looked up): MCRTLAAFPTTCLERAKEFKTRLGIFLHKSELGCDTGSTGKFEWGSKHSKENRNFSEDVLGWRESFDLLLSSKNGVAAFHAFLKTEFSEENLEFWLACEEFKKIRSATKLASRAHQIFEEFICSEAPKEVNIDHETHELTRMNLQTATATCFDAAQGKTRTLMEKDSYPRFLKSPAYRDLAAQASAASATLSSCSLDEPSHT
Target sequence (P09471 whole entry, looked up): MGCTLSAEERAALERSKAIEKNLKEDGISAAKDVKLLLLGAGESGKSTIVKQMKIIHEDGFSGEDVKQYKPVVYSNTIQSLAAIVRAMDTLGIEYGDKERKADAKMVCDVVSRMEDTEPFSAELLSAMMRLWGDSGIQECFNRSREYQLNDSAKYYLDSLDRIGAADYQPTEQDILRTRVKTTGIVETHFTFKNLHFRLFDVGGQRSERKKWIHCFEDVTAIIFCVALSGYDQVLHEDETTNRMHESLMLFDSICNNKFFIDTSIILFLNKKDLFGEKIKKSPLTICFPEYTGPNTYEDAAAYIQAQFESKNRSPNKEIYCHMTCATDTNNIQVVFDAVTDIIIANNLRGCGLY
PKD1 kinase inh – blocks activity of human protein kinase D1 | actives 0.056% (n = 200,000) | PKD1 kinase fluorescence polarization assay | AID 797 | Q15139 | inhibition, %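 (about 10 µM by stock and volumes)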;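 active = inhibition of 50% or more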;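 also: controls were vehicle for no effect and a reference inhibitor for full effect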
HSV augment – increases HSV replication in cells; actives 0.005% (n = 220,000); HSV replication augmentation in cells, fold increase; maximum fold increase; AID 1956;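 active = peak rise of 1.5-fold or more in the series; tested in PC3 cells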;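 also: first round at 10 µM; read as green reporter fluorescence; hits show the peak of a series up to 25 µM; 1 = signal of infected wells without compound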
INS promoter inh cell count – further read-out of INS promoter inh, marked with its call; normalized cell count, %; measured here: cell count, toxicity; reference of the scale not given here;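 cells exposed to compound for 48 h; stained nuclei by imaging scaled within each plate; lower means fewer cells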
HSV augment primary fold – second read-out of HSV augment, no call of its own (marks repeat the call); fold increase; compound at 10 µM; measured here: primary screen fold increase 10 uM; tested in PC3 cells;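 GFP signal in the first replicate; 1 = infected wells without compound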
Numbers without * were called inactive; i = inactive; · = no result given.

nr | SMILES | GALR2 agonist | INS promoter inh | INS promoter inh cell count | RGS16-Gao HTS | PKD1 kinase inh | HSV augment | HSV augment primary fold
1 | COCC(C)NCc1cccc(C)c1 (stereo not drawn) | -1.4 | -15 | 127 | 106 | -6 | i | 0.9
2 | Cc1ccc(Nc2cccccc2=O)cc1 | -1.5 | · | · | 99 | 15 | · | ·
3 | O=C(CSc1nnc(-c2ccccc2F)o1)OCc1ccccc1 | -2.3 | -321 | 93 | 95 | -5 | i | 0.89
4 | CN(c1ccc(OCC(=O)NC2CCCC2)cc1)S(=O)(=O)c1cccs1 | -1.8 | -10 | 100 | 112 | 1 | i | 0.75
5 | CCOC(=O)c1cccc(NC(=O)CSc2nc3cccnc3n2C)c1 | -0.5 | · | · | 100 | -4 | i | 0.98
6 | COC(=O)C(=O)Nc1nnc(COc2ccccc2)s1 | -2.4 | 43 | 66 | 100 | 0 | i | 1
7 | COc1ccc(CNC(=O)C2CC(c3cccc(OC)c3)=NO2)cc1 (stereo not drawn) | -1.3 | 73* | 73* | 98 | -9 | i | 0.87
8 | O=C(c1ccccc1Cl)N(Cc1ccc(Br)cc1)N1C(=O)CCCC1=O | · | · | · | 100 | 5 | i | 0.97
9 | COc1ccc(/C=N\NC(=O)c2cc(O)c(O)c(O)c2)cc1CN1CCN(c2ccc(F)cc2)CC1 | -1.3 | · | · | 61 | 9 | i | 1
10 | O=C(Nc1ccccc1-c1nnn(CC(=O)N2CCN(c3ccccc3)CC2)n1)c1cccs1 | -2.0 | -127 | 92 | 103 | -1 | i | 0.68
11 | CCCN1C(=O)C(O)(C2CC(=O)CC(C)(C)O2)c2ccccc21 (stereo not drawn) | -1.8 | -348 | 100 | 104 | -1 | i | 1.1
12 | O=C(CNCC1CCCO1)N1CCCc2ccccc21 (stereo not drawn) | -2.5 | · | · | 149 | -6 | i | 0.85
13 | O=C(CSc1n[nH]c(-c2cccs2)n1)NCc1ccc2c(c1)OCO2 | -2.8 | -387 | 34 | 109 | -5 | i | 0.79
14 | CN(c1nc2nonc2nc1NC1CC1)C1CCOC1 (stereo not drawn) | · | · | · | 106 | -6 | i | 1.4
15 | COC(=O)c1ccc(NC(=O)CSc2nc(C)cc(=O)[nH]2)cc1 | -2.5 | 62 | 38 | 96 | 2 | i | 0.77
16 | O=C(O)CN1C(=O)C2C3C=CC(C3)C2C1=O (stereo not drawn) | -1.1 | · | · | 100 | -5 | i | 0.98
17 | CC(NS(=O)(=O)c1ccc(CCC(=O)NCc2ccco2)cc1)c1ccccc1 (stereo not drawn) | -1.3 | -29 | 132 | 98 | -4 | i | 0.96
18 | O=C(COC(=O)c1cc(S(=O)(=O)N2CCOCC2)ccc1Cl)Nc1ccc2c(c1)OCO2 | -0.5 | · | · | 93 | -8 | i | 1.1
19 | CC(c1ccccc1)N(CC(=O)NC1CCCCC1)S(=O)(=O)c1cccc(C(F)(F)F)c1 (stereo not drawn) | -1.3 | 0 | 77 | 110 | -9 | i | 0.96
20 | CCn1cc(C2=NOC(C(=O)Nc3ccccc3C(=O)OC)C2)c(C)n1 (stereo not drawn) | -1.1 | · | · | 102 | -11 | i | 1
21 | CCCc1nc2ccccc2c(C(=O)OCC(=O)c2ccc3c(c2)NC(=O)CO3)c1CC | 0.6 | 12 | 87 | 100 | -4 | i | 0.92
22 | COc1cc([N+](=O)[O-])ccc1NC(=O)Nc1ccc2c(c1)OCCO2 | · | · | · | 103 | 8 | i | 0.97
23 | O=C(CSc1nccc(=O)[nH]1)N1CCN(c2ccccc2)CC1 | · | · | · | 101 | -3 | i | 0.94
24 | CCOc1ccc(NC(=O)N[C@@H](Cc2ccccc2)C(=O)O)cc1 | · | · | · | 97 | · | i | 1.2
25 | COc1ccc(OC)c2c1CC(C)(C)NC2=O | -0.1 | -14 | 156 | 97 | -6 | i | 1.2
26 | CN(C)c1ccc(N/C=C/C(=O)c2ccco2)cc1 | -5.4 | · | · | 93 | -6 | i | 0.92
27 | CC(=O)Nc1cccc(-c2nn[nH]n2)c1 | · | · | · | 105 | · | i | 0.99
28 | O=C(NNC(=S)Nc1ccc(Cl)cc1Cl)c1ccncc1 | -1.8 | · | · | 97 | 1 | i | 0.93
29 | CC(C)COCC(O)CC(Cc1ccccc1)C(=O)NN (stereo not drawn) | · | 35 | 165 | 103 | 0 | i | 0.87
30 | O=C(Cc1ccc(S(=O)(=O)N2CCOCC2)s1)Nc1ccccc1N1CCOCC1 | · | 0 | 134 | 98 | 1 | i | 1.1
31 | Cn1cc(C(=O)c2cccc(Cl)c2)cc1C#N | · | · | · | 103 | -1 | i | 0.97
32 | O=C(Nc1ccc(F)cc1F)c1cc2nc3c(c(C(F)(F)F)n2n1)CCCC3 | -0.1 | 20 | 120 | 105 | -1 | i | 1
33 | CC(C)c1c(O)nc(SCCOc2ccc(Cl)cc2)[nH]c1=O | · | · | · | 101 | · | i | 1.1
34 | O=S(=O)(Nc1cc(S(=O)(=O)N2CCOCC2)ccc1N1CCOCC1)c1ccc2c(c1)OCCO2 | · | 6 | 136 | 103 | 1 | i | 1
35 | O=C(CCCN1C(=O)S/C(=C\c2ccccc2)C1=O)NNC(=O)c1ccccc1O | · | 40 | 80 | 98 | -4 | i | 0.93
36 | CCN1CCN(c2ncnc3c2cnn3-c2ccccc2)CC1 | -3.2 | · | · | 105 | 3 | i | 0.91
37 | CCn1nc(C)c(CNC(=O)CCc2nnc(-c3ccc(C(C)=O)s3)o2)c1C | · | · | · | 99 | -3 | i | 0.98
38 | CCCCNC(=O)c1ccc2c(=O)n(CCCOCC)c(=S)[nH]c2c1 | 0.0 | 11 | 89 | 100 | 1 | i | 0.97
39 | Cc1cc(C(F)(F)F)nc(CCNCc2c(C(=O)N3CCCC3)nc3ccccn23)n1 | · | 4 | 71 | 147 | 2 | i | 0.96
40 | N#CCc1nc2n(n1)Cc1ccccc1-2 | 0.2 | 0 | 82 | 101 | -3 | i | 0.99
41 | CCCCC(c1nnnn1CS(=O)(=O)c1ccc(C)cc1)N1CCN(C)CC1 (stereo not drawn) | · | -175 | 77 | 103 | 1 | i | 0.97
42 | O=C(Nc1nccs1)c1ccc(COc2ccc(F)cc2)o1 | 0.1 | -76 | 133 | 110 | -9 | i | 0.99
43 | Cc1cc(NC(=O)Nc2ccc(Cl)cc2)n(-c2ccccc2)n1 | · | · | · | 107 | · | i | 1.1
44 | CCOC(=O)c1c(C)[nH]c(C)c1C(=O)COC(=O)c1cccc(S(=O)(=O)N(CC)CC)c1 | 0.3 | -14 | 119 | 102 | -6 | · | ·
45 | Cc1ccccc1CSc1nnc(-c2ccccc2)c(=O)[nH]1 | · | · | · | 98 | -1 | i | 1
46 | CC1CC(C)(C)N2C(=O)C(=C(C#N)C#N)c3cccc1c32 (stereo not drawn) | · | · | · | 103 | · | i | 0.8
47 | CCN(CC)c1ccc(C(=O)N/N=C/c2ccc(N3CCOCC3)cc2)cc1 | · | 5 | 150 | 95 | -1 | i | 1.1
48 | O=C(COc1nsnc1N1CCOCC1)N1CCOCC1 | -1.7 | · | · | 90 | -13 | · | ·
49 | COc1ccc(CCNC(=O)c2cc(-c3ccncc3)nc3c(Cl)cccc23)cc1OC | · | · | · | 100 | -8 | i | 0.96
50 | CCC(=O)Nc1nnc(SCC(=O)Nc2ccc(F)cc2)s1 | -1.1 | -8 | 113 | 102 | -3 | i | 0.89

The results go on:
nr | SMILES | GALR2 agonist | INS promoter inh | INS promoter inh cell count | RGS16-Gao HTS | PKD1 kinase inh | HSV augment | HSV augment primary fold
51 | CC(C)CNC(=O)CN(c1cccc(Cl)c1)S(C)(=O)=O | · | · | · | 95 | -2 | i | 1.3
52 | CCC(Sc1nc(C)cc(C)n1)C(=O)Nc1cc(C)on1 (stereo not drawn) | · | · | · | 95 | -2 | i | 1.1
53 | CC1=NN(c2ccccc2)C(=O)/C1=C\c1sccc1C | · | · | · | 97 | · | i | 0.96
54 | N/C(=N\OC(=O)CCC1CCCC1)c1ccccn1 | -1.1 | 7 | 127 | 105 | -3 | i | 0.96
55 | Cc1ccc(C(=O)n2nc(-c3ccco3)nc2N)cc1 | -1.9 | 10 | 106 | 102 | -17 | i | 0.9
56 | Cc1oc(-c2ccccc2)cc1C(N)=O | -0.5 | 1 | 147 | 104 | 10 | i | 0.89
57 | O=C(c1cc2ccccc2oc1=O)N(c1ccc(Cl)cc1)C1C=CS(=O)(=O)C1 (stereo not drawn) | 0.8 | 20 | 60 | 112 | -5 | i | 0.71
58 | CCOC(=O)CSc1nc(N)c(C(=O)Nc2ccc(N(C)C)cc2)s1 | -1.8 | · | · | 51 | -4 | i | 0.9
59 | Cc1n[nH]c(C)c1S(=O)(=O)NCCc1ccc(Cl)cc1 | -1.8 | 0 | 107 | 107 | -7 | i | 0.93
60 | O=C(Nc1nccs1)c1ccc(-c2ccc(F)cc2)o1 | · | · | · | 101 | -3 | i | 0.97

Pulled by compound from the entries so far (3):
nr | SMILES | GALR2 agonist | INS promoter inh | INS promoter inh cell count | RGS16-Gao HTS | PKD1 kinase inh | HSV augment | HSV augment primary fold
58 | CCOC(=O)CSc1nc(N)c(C(=O)Nc2ccc(N(C)C)cc2)s1 | -1.8 | · | · | 51 | -4 | i | 0.9
54 | N/C(=N\OC(=O)CCC1CCCC1)c1ccccn1 | -1.1 | 7 | 127 | 105 | -3 | i | 0.96
55 | Cc1ccc(C(=O)n2nc(-c3ccco3)nc2N)cc1 | -1.9 | 10 | 106 | 102 | -17 | i | 0.9

Next records
nr | SMILES | GALR2 agonist | INS promoter inh | INS promoter inh cell count | RGS16-Gao HTS | PKD1 kinase inh | HSV augment | HSV augment primary fold
61 | CC(C)C(=O)Nc1ccc2nn(-c3ccccc3)nc2c1 | · | · | · | 101 | -2 | i | 1
62 | CCc1ccc(NC(=O)Cc2ccc(-n3cccc3)cc2)cc1 | 0.6 | 4 | 72 | 100 | -9 | i | 0.99
63 | Cc1ccc(S(=O)(=O)N(C)c2c(C)ccc(S(=O)(=O)N3CCN(C=O)CC3)c2C)cc1 | -1.4 | -8 | 74 | 99 | -8 | · | ·
64 | Cc1ccc(N/C(N)=N/c2nc(CSc3ccccn3)cc(=O)[nH]2)c(C)c1 | · | · | · | 105 | 4 | i | 1
65 | O=S(=O)(c1ccc(Cl)cc1)n1ccc(-c2cccc(OCc3c(F)cccc3Cl)c2)n1 | -0.7 | 8 | 119 | 95 | -10 | i | 0.86
66 | Cc1cc(C)c(NC(=O)c2ccccc2CCc2ccccc2)c(C)c1 | -0.8 | · | · | 102 | 11 | i | 0.89
67 | CC(C)CC(NC(=O)c1ccccc1)C(=O)OCC(=O)Nc1ccc(Br)cn1 (stereo not drawn) | -1.3 | -30 | 47 | 120 | 0 | i | 1.2
68 | Cc1cc(CSc2ccccc2)ccc1NC(=O)c1ccc(C)c([N+](=O)[O-])c1 | -1.3 | 20 | 76 | 65 | 0 | i | 0.95
69 | COc1cc(NC(=O)CSc2ncnc3scc(-c4ccccc4)c23)c(C(=O)O)cc1OC | · | -33 | 91 | 95 | -2 | i | 0.92
70 | CC(C)(C)NS(=O)(=O)c1ccc(CCC(=O)Nc2ccc3c(c2)OCCO3)cc1 | -0.6 | -36 | 102 | 97 | -5 | i | 0.87
71 | CCCCNc1ncnc2c1cnn2-c1ccc(Cl)cc1 | -0.9 | · | · | 107 | -12 | i | 0.55
72 | O=C(Nc1ccc2nc(-c3cccs3)c(-c3cccs3)nc2c1)N1CCOCC1 | 2.6 | -140 | 87 | 100 | -4 | i | 0.89
73 | CCC(=O)Nc1ccc(N2CCN(Cc3ccccc3)CC2)cc1 | -2.4 | -38 | 105 | 100 | 1 | i | 0.99
74 | COC(=O)C(C)Sc1nc2c(c(=O)n1-c1ccccc1)SCC2 (stereo not drawn) | -1.1 | 37 | 134 | 113 | 5 | i | 0.88
75 | O=C(N/N=C/c1ccc([N+](=O)[O-])o1)c1cn(-c2ccccc2)nc1-c1ccc(F)cc1 | · | -159 | 103 | 99 | 2 | i | 0.89

Profiles from above. Values in the order: GALR2 agonist | INS promoter inh | INS promoter inh cell count | RGS16-Gao HTS | PKD1 kinase inh | HSV augment | HSV augment primary fold
COc1ccc(CNC(=O)C2CC(c3cccc(OC)c3)=NO2)cc1 (stereo not drawn) across the screens: -1.3 | 73* | 73* | 98 | -9 | i | 0.87
CCCCNc1ncnc2c1cnn2-c1ccc(Cl)cc1 across the screens: -0.9 | · | · | 107 | -12 | i | 0.55
CCN1CCN(c2ncnc3c2cnn3-c2ccccc2)CC1 across the screens: -3.2 | · | · | 105 | 3 | i | 0.91

Screens: PubChem, several laboratories
